Screening results deposited in PubChem BioAssay by Broad Institute.
Tgondii IFNg: blocks Toxoplasma gondii growth in the presence of IFN-gamma | Toxoplasma gondii growth in IFN-gamma-treated host cells; active compounds read low; reference of the scale not given here | activity change, negative = inhibition, %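 (about 20 µM by stock and volumes)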 | actives 3.8% (n = 69,000) | AID 1259416;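 active means below -70%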;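 further: host cells are HeLa cells infected with Toxoplasma gondii; parasite growth read as luciferase light; one replicate is shown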
Active calls of the source: *; & = joins results of further samples. This is a subset, so the mix of outcomes need not match the whole.

Results for CCOc1ccc(-c2nc(Cn3c(=O)c4cccnc4n(-c4ccccc4OC)c3=O)c(C)o2)cc1 ?
Tgondii IFNg: 15

Results for CCOC(=O)N1CCN(C(=O)c2ccc(N3CCC(NC4Cc5ccccc5C4)CC3)cc2)CC1 ?
Tgondii IFNg: -48

What do the screens show for `Cc1ccc(NC(=O)c2sc(N)c(C#N)c2C)c(C)c1`?
Tgondii IFNg: 367

Results for CC(=O)N1CCOC2(CCCN(C(=O)Cc3ccccc3)C2)C1 (stereo not given) ?
Tgondii IFNg: -5

How did CC(C)NC(=O)N1CCC[C@@]2(C(=O)N(C)C)CN(c3ccccn3)C[C@H]2C1 do in these assays?
Tgondii IFNg: 4

How did Cc1noc(C)c1S(=O)(=O)N1CCCC(c2cc(CN(C)C)n(C)n2)C1 (stereo not given) do in these assays?
Tgondii IFNg: -28

What do the screens show for `C[C@@]1(O)CCN(c2ccc(C(F)(F)F)cn2)C[C@@H]1Cc1ccccc1`?
Tgondii IFNg: -17

Results for CC(C)C(=O)Nc1ccc2c(c1)C(=O)N(C)[C@@H]1CC[C@H](CC(=O)NCCc3ccccc3)O[C@H]1CO2 ?
Tgondii IFNg: 7

What do the screens show for `CCN(CC)c1ncnc2c1cnn2CC(=O)NCc1ccccc1Cl`?
Tgondii IFNg: 124

Results for Cc1ccc(CC(=O)Nc2ccc3c(c2)CCC(=O)N3)cc1 ?
Tgondii IFNg: 6

How did O=C(O)CC(CC(=O)Nc1ccc(F)c(Cl)c1)c1ccc(Cl)cc1Cl (stereo not given) do in these assays?
Tgondii IFNg: -54

How did CCOC(C)c1ccc(-c2cncnc2)cc1 (stereo not given) do in these assays?
Tgondii IFNg: -6

How did C[C@@H]1CCCCO[C@@H](CN(C)S(=O)(=O)c2cn(C)cn2)[C@H](C)CN([C@H](C)CO)C(=O)c2cc(NC(=O)Nc3cccc4ccccc34)ccc2O1 do in these assays?
Tgondii IFNg: inactive

Results for O=C(c1ccco1)N1CCCN(Cc2nc(-c3ccc4c(c3)OCO4)no2)CC1 ?
Tgondii IFNg: 29

Results for O=c1o[nH]c(-c2ccccc2)c1N=Nc1c(F)cccc1Cl ?
Tgondii IFNg: -4

Results for CN(C)C(=O)c1cccc(-c2ccc3c(c2)[C@@H]2[C@@H](CCN2C(=O)Cc2ccccc2)[C@H](CO)N3)c1 ?
Tgondii IFNg: -48

How did CCN1C(=O)C(CC(=O)Nc2ccc(OC)cc2)N(CCc2ccc(F)cc2)C1=S (stereo not given) do in these assays?
Tgondii IFNg: 8

How did COC(=O)CCC(=O)c1oc2ccccc2c1N do in these assays?
Tgondii IFNg: 3

Results for Cc1nc2c(OCc3ccccc3)cccn2c1CC#N ?
Tgondii IFNg: 13&19

What do the screens show for `Cc1nc(N2CCCC2)nc2c1CN(Cc1ccccc1)CC2`?
Tgondii IFNg: -47

What do the screens show for `Cc1nc(CCNC(=O)Cc2noc3ccccc23)nc2c1CCCC2`?
Tgondii IFNg: 20

What do the screens show for `Nc1nc(-c2ccc(-c3ccccc3CN3CCOCC3)cc2)cs1`?
Tgondii IFNg: 2

Results for CCOc1ccccc1NC(=O)N1CCC2(CC1)NC(=O)c1ccc(Cl)cc1N2CC ?
Tgondii IFNg: 105

Results for CO[C@@H]1CC[C@H]2CCOc3c(C#N)cccc3C(=O)N(C)C[C@@H](c3ccccc3)CC(=O)N(C)C[C@@H]1O2 ?
Tgondii IFNg: -19

Results for CC(=O)NC1(c2ccccc2F)CCN(Cc2oc3ccc(C)cc3c2C)CC1 ?
Tgondii IFNg: 78

How did COc1cc(Cl)cc(C(=O)N2CCCC(N(C)C)CC2)c1 (stereo not given) do in these assays?
Tgondii IFNg: 4

How did Cc1nc(-c2cccc(F)c2)sc1CCNC(=O)C12CC3CC(CC(C3)C1)C2 do in these assays?
Tgondii IFNg: -46

How did CCOC(=O)c1nn(C)c(C)c1Br do in these assays?
Tgondii IFNg: -40

Results for Cn1cnc(S(=O)(=O)NCCN2CCNC2=O)c1 ?
Tgondii IFNg: 22

How did Cc1cc(CNC(=O)c2cc3ccccc3s2)c2ccccc2n1 do in these assays?
Tgondii IFNg: 12

How did Cc1nc(NCCNC(=O)c2ccncc2)cc(C(C)C)n1 do in these assays?
Tgondii IFNg: -46

Results for Cc1cccc(C2CN(C(=O)C(C)C)CCO2)n1 (stereo not given) ?
Tgondii IFNg: 12

What do the screens show for `C[C@H](CO)N1C[C@H](C)[C@H](CN(C)S(C)(=O)=O)Oc2cc(-c3ccncc3)ccc2S1(=O)=O`?
Tgondii IFNg: 186

What do the screens show for `CC(C)c1nc(CCN(C)C(=O)CN2CCCN(C)CC2)no1`?
Tgondii IFNg: 2

What do the screens show for `CCOc1ccc(C(=O)NCCc2csc(-c3ccc(F)cc3)n2)cc1`?
Tgondii IFNg: -35

How did CN(Cc1ccco1)C1CCCC2CN(S(=O)(=O)c3ccc(F)cc3)CC21 (stereo not given) do in these assays?
Tgondii IFNg: 23

How did Cc1ccc2cc(C3(O)CCN(C(=O)[C@H]4CCCN4)CC3)ccc2n1 do in these assays?
Tgondii IFNg: 1

What do the screens show for `Cc1ccnc(SCc2cc(=O)c3c(=O)n(-c4nc(C)cc(C)n4)[nH]c3[nH]2)n1`?
Tgondii IFNg: 30

What do the screens show for `O=C(Nc1ccc(-c2nc(-c3ccccc3)co2)cc1)Nc1ccccc1C(F)(F)F`?
Tgondii IFNg: 155

How did Cc1nc(CN2CCN(C(=O)c3cccc(NCc4cccs4)c3)CC2)no1 do in these assays?
Tgondii IFNg: 2

What do the screens show for `CN1CC2(CCCN(C(=O)CN3CCOc4ccccc4C3)C2)OC1=O` (stereo not given)?
Tgondii IFNg: 1

How did CCCCNC(=O)Cn1c(=O)cc(-c2nc(C)no2)c2ccccc21 do in these assays?
Tgondii IFNg: 42

What do the screens show for `Cc1cc(F)ccc1NC(=O)CN1C(=O)CCc2cc(S(=O)(=O)N3CCC(C)CC3)ccc21`?
Tgondii IFNg: -5

Results for CC(C(=O)NCc1ccccc1-n1ccnc1)n1cc(Cl)cn1 (stereo not given) ?
Tgondii IFNg: 0

What do the screens show for `COc1ccc(CNC(=O)N(C)C[C@@H]2OCc3ccccc3-c3c(n(C)c4ccccc34)C(=O)N([C@@H](C)CO)C[C@@H]2C)cc1`?
Tgondii IFNg: -41

How did O=C(Cn1ncc2c(N3CCN(c4ccccn4)CC3)ncnc21)NCC1CCCO1 (stereo not given) do in these assays?
Tgondii IFNg: 2

What do the screens show for `CCN(Cc1noc(C)n1)C(=O)c1cn(-c2ccccc2)nn1`?
Tgondii IFNg: 13

How did CCCNC(=O)c1ccc2nc(-c3ccccc3)c(-c3ccccc3)nc2c1 do in these assays?
Tgondii IFNg: -39

How did CN1CCN(C(=O)C[C@H]2CC[C@@H]3[C@H](COC[C@@H](O)CN3C(=O)Nc3ccc4c(c3)OCO4)O2)CC1 do in these assays?
Tgondii IFNg: 17

Results for CC(c1ccon1)N(C)CC(=O)Nc1nc2ccccc2[nH]1 (stereo not given) ?
Tgondii IFNg: 19

What do the screens show for `C=C(C)Cn1c(/C=C/c2ccco2)nc2ccccc21`?
Tgondii IFNg: 28

Results for COCC(=O)NCC1Cn2nnc(-c3cnn(C)c3)c2CO1 (stereo not given) ?
Tgondii IFNg: -5

How did Cc1nccn1Cc1cccc(NC(=O)C(c2ccc(F)cc2)N2CCOCC2)c1 (stereo not given) do in these assays?
Tgondii IFNg: 2

Results for CC(C)(C)c1csc(-c2cc3nccc(-c4cccc(C(F)(F)F)c4)n3n2)n1 ?
Tgondii IFNg: -52

What do the screens show for `Cc1ccccc1C(=O)NN1C(=O)c2ccccc2C1=O`?
Tgondii IFNg: -31

What do the screens show for `Cc1ccc(F)c(C(=O)N2CCNCC2C(=O)N2CCN(C)CC2)c1Cl` (stereo not given)?
Tgondii IFNg: -2

How did Clc1ccccc1-c1nc2ccccc2c2nc3ccccc3n12 do in these assays?
Tgondii IFNg: -52

Results for C=C(C)COc1ccccc1C(=O)NCC1CC(=O)N(C2CC2)C1 (stereo not given) ?
Tgondii IFNg: -29

How did O=C(Cn1ncc2c(N3CCN(c4ccccn4)CC3)ncnc21)Nc1ccccc1Br do in these assays?
Tgondii IFNg: 60

Results for COc1cccc(OC)c1-c1cccc(OC(C)C(N)=O)c1 (stereo not given) ?
Tgondii IFNg: -4

What do the screens show for `COc1ccc([C@@H]2C[C@H](O)C(=O)N2C)cc1`?
Tgondii IFNg: 40

Results for CC(C)c1nccn1-c1cccc(C2CCCN(S(=O)(=O)N(C)C)C2)n1 (stereo not given) ?
Tgondii IFNg: -15

What do the screens show for `COC[C@@H]1CN(CC2CC2)C[C@@]12CCN(C(=O)Cc1ccccc1)C2`?
Tgondii IFNg: -64

Results for Cc1ccc(Nc2ncccc2C(=O)O)c(C)c1 ?
Tgondii IFNg: 28

Results for Cc1cccc(-c2nc(Cc3noc(-c4ccncc4)n3)c(C)o2)c1 ?
Tgondii IFNg: 7

How did O=C(Cn1ncc2c(N3CCCCCC3)ncnc21)Nc1ccc(F)cc1 do in these assays?
Tgondii IFNg: -3

What do the screens show for `Cc1ccc(C(=O)N2CCc3c(nc(-c4ccccc4)nc3N(C)C)C2)cc1`?
Tgondii IFNg: -61

What do the screens show for `Cc1ccc(C(=O)NCC2CCC(c3nnc(-c4ccc(C)nc4)o3)CC2)cc1` (stereo not given)?
Tgondii IFNg: 47

Results for C/C=C/c1ccc([C@H]2[C@@H](CO)N[C@@H]2CNC(=O)C2CC2)cc1 ?
Tgondii IFNg: 9

How did CC(C)OC(=O)c1cc2c(ccn2-c2ccc(F)cc2)n1CC(=O)Nc1ccccc1 do in these assays?
Tgondii IFNg: inactive

Not a retest: entries from further up.
How did O=C(Cn1ncc2c(N3CCN(c4ccccn4)CC3)ncnc21)Nc1ccccc1Br do in these assays?
Tgondii IFNg: 60

Results for COc1cccc(OC)c1-c1cccc(OC(C)C(N)=O)c1 (stereo not given) ?
Tgondii IFNg: -4

What do the screens show for `COc1ccc([C@@H]2C[C@H](O)C(=O)N2C)cc1`?
Tgondii IFNg: 40

Results for CC(C)c1nccn1-c1cccc(C2CCCN(S(=O)(=O)N(C)C)C2)n1 (stereo not given) ?
Tgondii IFNg: -15

What do the screens show for `COC[C@@H]1CN(CC2CC2)C[C@@]12CCN(C(=O)Cc1ccccc1)C2`?
Tgondii IFNg: -64

Results for Cc1ccc(Nc2ncccc2C(=O)O)c(C)c1 ?
Tgondii IFNg: 28

Results for Cc1cccc(-c2nc(Cc3noc(-c4ccncc4)n3)c(C)o2)c1 ?
Tgondii IFNg: 7

How did O=C(Cn1ncc2c(N3CCCCCC3)ncnc21)Nc1ccc(F)cc1 do in these assays?
Tgondii IFNg: -3

What do the screens show for `Cc1ccc(C(=O)N2CCc3c(nc(-c4ccccc4)nc3N(C)C)C2)cc1`?
Tgondii IFNg: -61

What do the screens show for `Cc1ccc(C(=O)NCC2CCC(c3nnc(-c4ccc(C)nc4)o3)CC2)cc1` (stereo not given)?
Tgondii IFNg: 47

Results for C/C=C/c1ccc([C@H]2[C@@H](CO)N[C@@H]2CNC(=O)C2CC2)cc1 ?
Tgondii IFNg: 9

How did CC(C)OC(=O)c1cc2c(ccn2-c2ccc(F)cc2)n1CC(=O)Nc1ccccc1 do in these assays?
Tgondii IFNg: inactive

Other structures:
How did Cn1c(=O)c(CN2CCC(CNC(=O)C3CC3)C2)cc2ccccc21 (stereo not given) do in these assays?
Tgondii IFNg: 1

How did CN1C(=O)c2cc(NC(=O)c3cnccn3)ccc2OC[C@@H]2O[C@H](CC(=O)N[C@H]3CCN(Cc4ccccc4)C3)CC[C@@H]21 do in these assays?
Tgondii IFNg: 17

Results for C[C@@H]1CN([C@@H](C)CO)C(=O)c2c(c3ccccc3n2C)-c2ccccc2CO[C@H]1CN(C)C(=O)Nc1ccc2c(c1)OCO2 ?
Tgondii IFNg: 37

How did COc1ccc(-c2nc3c(s2)CN(C(=O)Nc2cccc(SC)c2)CC3)cc1 do in these assays?
Tgondii IFNg: -116*

How did COc1cccc(-c2ccc(O)cc2)n1 do in these assays?
Tgondii IFNg: 28

How did CC(C)Nc1nc(CSc2ccccn2)cc(=O)[nH]1 do in these assays?
Tgondii IFNg: 7

What do the screens show for `O=C1CC(c2ccnn2-c2ccccc2)c2ccc(N3CCOC3=O)cc2N1` (stereo not given)?
Tgondii IFNg: -49

What do the screens show for `O=C1CCC2C(CCN2c2ncc(F)cn2)N1CC1CCOCC1` (stereo not given)?
Tgondii IFNg: 1

What do the screens show for `COc1ccc(-c2nc(-c3cc4cccc(OC)c4oc3=O)cs2)cc1`?
Tgondii IFNg: -6

How did CCC(C)N(Cc1ccncc1)C(=O)Cc1nc(C)sc1C (stereo not given) do in these assays?
Tgondii IFNg: 46

How did CC[C@H]1C/C=C\CCNC(=O)CCC(=O)N1 do in these assays?
Tgondii IFNg: -31

What do the screens show for `O=C1CCCN1c1ccc(CN(CCCn2ccnc2)Cc2cccc(F)c2)cc1`?
Tgondii IFNg: 23

How did Cc1noc(C)c1C1CCCN1C(=O)c1scc2c1OCCO2 (stereo not given) do in these assays?
Tgondii IFNg: 35

What do the screens show for `CC(C)[C@@H]1COCc2cn(nn2)CC[C@H](Cc2ccc(-c3ccccc3)cc2)C(=O)N1`?
Tgondii IFNg: -16

How did C[C@H]1CN([C@@H](C)CO)C(=O)Cc2cc(NC(=O)C3CC3)ccc2O[C@H]1CN(C)S(=O)(=O)c1cn(C)cn1 do in these assays?
Tgondii IFNg: 65

How did COC1C2CCC1N(C(=O)c1cccc3c1OCCO3)CCO2 (stereo not given) do in these assays?
Tgondii IFNg: -46

How did Cc1cc(C)n(CCNC(=O)C(=O)N2c3ccccc3CC2C)c(=O)n1 (stereo not given) do in these assays?
Tgondii IFNg: 1

Results for COCC1CC2OCCN(C(=O)c3ccc4ncccc4c3)C2C1 (stereo not given) ?
Tgondii IFNg: -14

How did Cc1oc(CSCc2cc(C(=O)O)c(C)o2)cc1C(=O)O do in these assays?
Tgondii IFNg: 8

What do the screens show for `COc1ccc2c3c(n(C)c2c1)[C@H](CO)N(S(=O)(=O)c1ccc(C)cc1)CC31CCN(C)CC1`?
Tgondii IFNg: -24

What do the screens show for `N#Cc1cc(O)c(-n2nnc3ccccc32)cc1C#N`?
Tgondii IFNg: -15
